# Compound activity deposited in PubChem BioAssay by National Center for Advancing Translational Sciences (NCATS).
# YjeE inh: displaces an ADP probe from E. coli YjeE (TsaE) | P0AF67 | purified YjeE, fluorescence polarisation of a bound ADP probe | Potency, µM | 0.05% of 71,000 active; active = well fitted falling curve; inconclusive = weaker or top-dose-only fall, or a rising curve; inactive = flat or poorly fitted curve;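 also: top concentration of the series not given in the record; excess ADP was the control for the full effect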
#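 Fluorescence polarization of a BODIPY Texas Red–ADP probe (2 uM) bound to purified YjeE (10 uM) was read after 15 min room-temperature incubation with compounds. Loss of polarization marks inhibitors; ADP serves as titrated control.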
# PK Bst: pyruvate kinase (B. stearothermophilus) modulation; 1.2% of 51,000 active; AID 361; Potency, µM; partly purified Bacillus stearothermophilus pyruvate kinase, luminescence ATP production; ribose 5-phosphate activator present at AC10; in the data active means potency below about 11 µM; inconclusive means mostly about 12 µM to 25 µM; inactive means weaker than that;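 the screen sought inhibitors and activators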;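 also: potency is read from the fitted curve at half-maximal effect; scaled between full activation by ribose 5 phosphate and full inhibition by luteolin; about four in five hits inhibit and the cells do not say which; series up to 57 µM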
# Active calls of the source: *; i = inactive; ? = inconclusive; / = not tested or not shown. An excerpt; count on the stated rates, not on these rows.
Structure | YjeE inh | PK Bst
c1ccc2c(c1)CCOC2CNCCCN1CCCCC1 (configuration not stated) | / | >26
Cc1n[nH]c(C)c1S(=O)(=O)N1CCN(C(=O)c2ccco2)CC1 | i | >57
O=C(NCc1ccco1)c1c2c(nc3ccccc13)CCC2 | i | >57
CC1(C)CC(=O)C(C=NCCN2CCN(C(=O)C34CC5CC(CC(C5)C3)C4)CC2)=C(O)C1 | / | >26
O=C(CC1Oc2ccccc2NC1=O)NCCCN1CCN(Cc2ccccc2)CC1 (configuration not stated) | i | /
COc1ccc(C)cc1S(=O)(=O)N(CC(=O)O)c1ccc(C)cc1 | i | >57
CN(C)c1ncc2nc(-c3ccccc3)c(=O)n(CCC#N)c2n1 | i | /
NCCCCCCNS(=O)(=O)c1cccc2c(Cl)cccc12 | i | /
COC(=O)C(Cc1ccc(O)cc1)NC(=O)C(C)Oc1ccccc1 (configuration not stated) | i | >57
CCOc1ccc(C(=O)COC(=O)CC)cc1 | i | /
C[N+](C)(C)CCC(=O)c1cccc2ccccc12 | i | /
O=C(CCc1nc(-c2cccs2)no1)Nc1cnc2ccccc2c1 | i | >57
COc1ccc2c(c1)[nH]c1c(=O)n(CC3CCCO3)cnc12 (configuration not stated) | / | >26
CCOC(=O)c1c(C2CC2)csc1NC(=O)CSCc1c(C)noc1C | i | >57
Cn1c(=O)[nH]c(=O)c2c1nc(NCCc1ccccc1)n2CC(O)COc1ccccc1 (configuration not stated) | i | >57
Oc1ccc(C(c2nnnn2C2CCCC2)N2CCc3ccccc3C2)cc1 (configuration not stated) | i | >57
COc1cc(/C=C\C(=O)N2CCCCC2=O)cc(OC)c1OC | i | /
CCOC(=O)C1CCN(C(=O)c2cn(-c3ccccc3)nc2-c2cccnc2)CC1 | i | >11
COc1ccc2c(c1)CCc1c(C(=O)N3CCCCCC3)noc1-2 | i | /
CC(=O)N1CCC(Nc2ccc(C)cc2)CC1 | i | /

# Remaining list, next part
Structure | YjeE inh | PK Bst
O=C(O)[C@H](CCc1ccccc1)N1C(=O)c2ccccc2C1=O | i | /
Cc1cc(NC(=O)c2cc3n(n2)C(C(F)(F)F)CC(c2ccco2)N3)no1 (configuration not stated) | i | /
CCOc1ccc(NC(=O)c2nn(C)cc2Br)cc1 | / | ?
CCC1(C)Cc2c(c(=O)n(-c3ccccc3)c3ncnc(N)c23)CO1 (configuration not stated) | i | >57
O=C(O)CC(Cc1ccccc1)c1ccc2c(c1)OCO2 (configuration not stated) | i | >57
NC(=O)c1c(NC(=O)C2CCCO2)sc2c1CCC2 (configuration not stated) | i | >57
CCCOc1ccc(/C(O)=C2/C(=O)C(=O)N(CCCOC)C2c2cccnc2)cc1 (configuration not stated) | i | >57
CC(=O)c1cc(-c2ccccc2)[nH]c1N1CCOCC1 | i | >57
CCN(CC)c1ncnc2c1cnn2C | i | >57
CC(C(=O)NCCCN1CCOCC1)n1cccc1C(=O)c1ccccc1 (configuration not stated) | i | >57
CCc1ccc(-c2nc(CSCC(=O)N3CCN(c4ncccn4)CC3)c(C)o2)cc1 | i | /
Cc1csc(NC(=O)CCn2c(=O)sc3ccccc32)n1 | i | >57
CCN(CC)CCNC(=O)Cn1nc(Cc2ccccc2)c2ccccc2c1=O | i | /
CN(Cc1ccccc1)C(=O)CCNS(=O)(=O)c1ccc2c(c1)oc(=O)n2C | i | >57
O=C(NCCCCNC(=O)c1ccco1)c1ccco1 | i | >57
CCn1cc(C(=O)NCc2cccnc2)c2cc(OC)c(OC)cc2c1=O | i | >57
O=C(CCS(=O)(=O)c1cccc2nonc12)N1CCCc2ccccc21 | i | >57
CS(=O)(=O)N1Cc2ccccc2CC1C(=O)Nc1ccccc1C(N)=O (configuration not stated) | i | >57
Cc1nc2sc3c(c2c(=O)o1)CCCC3 | i | >57
COc1cc(NS(=O)(=O)c2ccc(N)cc2)nc(OC)n1 | i | >26

# Continuation:
Structure | YjeE inh | PK Bst
O=C1C2CCCN2C(c2cccc(F)c2)N1c1cccc(Cl)c1 (configuration not stated) | i | /
Cc1ccc(SCCNS(C)(=O)=O)cc1 | i | >57
NS(=O)(=O)c1cc(C(=O)O)cc(N2CCCC2)c1Oc1ccccc1 | i | /
Cn1cnc(S(=O)(=O)N2CCc3ccccc32)c1 | i | >57
CC(C)C[C@@H](CC(=O)N[C@@H](CCC(=O)O)CC(=O)O)NC(=O)[C@@H]1CCCC[C@H]1NC(=O)C[C@H](CCCN)NC(=O)C[C@H](Cc1ccccc1)NC(=O)[C@@H]1CNCC[C@H]1N | i | /
O=C(c1ccco1)N(CC1CCCO1)c1nc(-c2ccccc2)cs1 (configuration not stated) | i | >57
COc1ccc(C(=O)NC2=C(C#N)CCC2)cc1OC | i | >57
CC(=Nc1cccc(O)c1)c1sc2ccccc2c1O | / | 8.2*
Cc1cc(C)cc(Nc2ncc3c(n2)CCCC3=O)c1 | i | /
CCN(CC)C(=O)C(C)OC(=O)COc1ccc(Cl)cc1C (configuration not stated) | i | >57
CCOC(=O)c1ccc(N2C(=O)C3C(C2=O)C(C(=O)c2ccc(Cl)cc2)N2CCCC32)cc1 (configuration not stated) | i | >57
Cc1[nH]c(=O)[nH]c(=O)c1S(=O)(=O)N1CCN(c2cccc(Cl)c2)CC1 | i | >57
CC(=O)c1ccccc1OCCCN1CCCCC1 | i | >57
O=c1c2c(n3nnnc3n1Cc1ccccc1)-c1ccccc1CC21CCCC1 | i | >57
COc1cc([C@H]2[C@@H]3CCCC[C@]3(O)CCN2Cc2ccccc2F)ccc1O | i | >57
CN(C)Cc1c(O)ccc2occ(C(=O)c3ccccc3)c12 | i | >57
COC(=O)C(C)Sc1nnc(Cc2cc(=O)[nH]c(=O)[nH]2)n1-c1cccc(OC)c1 (configuration not stated) | i | /
COC(=O)N1CCC2(CC1)CN(c1ccccc1)C2 | ? | /
CN(C)/C=N/c1sc2c(c1C#N)CCC2 | i | >57
CCOc1ccc(C(=O)Nc2ccc(S(=O)(=O)N3CCOCC3)cc2)cc1OCC | i | >57

# Reformatted with values ahead of the structure: entries from further up
YjeE inh,PK Bst,canonical_smiles
i,>57,CCOC(=O)c1ccc(N2C(=O)C3C(C2=O)C(C(=O)c2ccc(Cl)cc2)N2CCCC32)cc1 (configuration not stated)
i,>57,Cc1[nH]c(=O)[nH]c(=O)c1S(=O)(=O)N1CCN(c2cccc(Cl)c2)CC1
i,>57,CC(=O)c1ccccc1OCCCN1CCCCC1
i,>57,O=c1c2c(n3nnnc3n1Cc1ccccc1)-c1ccccc1CC21CCCC1

# Continued:
Structure | YjeE inh | PK Bst
CCC(=O)N[C@@H]1Cc2ccccc2[C@@H](c2ccccc2)C1 | i | /
O=C(NCc1ccccc1)N1CCn2c(nc3ccccc32)C1 | i | >57
Cc1nn(C)cc1CNC(=O)C1C2CCC(O2)C1C(=O)O (configuration not stated) | i | >57
NCCC[C@@H](CC(=O)N[C@@H]1CCNC[C@H]1C(=O)N[C@H](CC(=O)N[C@@H](CCC(=O)O)CC(=O)O)Cc1ccccc1)NC(=O)C[C@H](Cc1ccccc1)NC(=O)[C@@H]1CCCC[C@H]1N | i | /
O=C(C1CCCCC1)N1CCC(c2nc3ccccc3[nH]2)CC1 | i | >57
CSc1nnnc2ccccc12 | i | /
Cc1cnc(CNc2ccnc(-c3ccoc3)n2)cn1 | i | /
CC(C)c1ccc(NS(=O)(=O)c2cn(C)c(=O)n(C)c2=O)cc1 | i | /
COc1cc(OC)c(-c2nc3cnccc3n2C)cc1OC | i | >57
COc1ccc(CN2C(=O)[C@@H]3C(c4ccc(F)cc4)=NO[C@@H]3C2=O)cc1 | i | >57
NC(N)=NC(=O)c1nc(Cl)c(N2CCCCCC2)nc1N | i | /
Cc1cc(-c2nn3c(-c4ccccc4)nnc3s2)c2ccccc2n1 | i | i
O=C(CN1c2cccc3cccc(c23)S1(=O)=O)N1CCOCC1 | i | >57
CCSc1nc2c([nH]c3ccccc32)c(=O)n1C | i | /
COc1ccc(C2C(C(=O)N3CCOCC3)CCC(=O)N2c2ccc(OC)cc2)cc1 (configuration not stated) | i | >57
CCOC(=O)N1CCN(C(=O)c2ccc3nc(C)sc3c2)CC1 | i | >57
Cc1ccc(-n2c(C)nc3oc4ccccc4c(=O)c3c2=O)cc1 | i | >57
O=C(c1cccs1)N1CCn2c1nc1ccccc12 | i | i
CNc1sc(C(=O)c2cccs2)c(N)c1-c1nc2ccccc2s1 | i | /
CCn1cc(C(=O)NCc2ccccn2)c(=O)c2cc(F)c(N3CCN(C)CC3)cc21 | / | >11

# Complete entries as entered above. Screens in order: YjeE inh	PK Bst
# CN(C)/C=N/c1sc2c(c1C#N)CCC2 is listed with i	>57
# COc1ccc(C)cc1S(=O)(=O)N(CC(=O)O)c1ccc(C)cc1 is listed with i	>57
# NS(=O)(=O)c1cc(C(=O)O)cc(N2CCCC2)c1Oc1ccccc1 is listed with i	/
# COc1cc(OC)c(-c2nc3cnccc3n2C)cc1OC is listed with i	>57

# New compounds follow:
Structure | YjeE inh | PK Bst
CC(CN1CCN(C)CC1)OC(=O)c1ccc(Cl)cc1Cl (configuration not stated) | / | >11
CN(C(=O)NC(=O)C1=C(N2CCOCC2)/C(=C/c2ccccc2)CC1)S(C)(=O)=O | i | >57
COc1ccccc1NC(=O)COc1ccc(CO)cc1Cl | i | >57
CCOC(=O)CSC1=C(C#N)C(c2ccc(Cl)cc2)C(C(=O)OC)C(=O)N1 (configuration not stated) | i | >57
Cc1ccc(S(=O)(=O)Cc2ccc(C(=O)NCCCN3CCCC3=O)o2)cc1 | i | >57
COC(=O)c1cc2nc(-c3ccc(OC)cc3)cc(C(F)(F)F)n2n1 | i | /
C1=CC2c3ccccc3NC(c3ccncc3)C2C1 (configuration not stated) | i | >57
CCOc1ccc(NC(=O)CN2CCC(NC(=O)C3CCCCC3)CC2)cc1 | i | >57
O=C(O)[C@@H]1Cc2c([nH]c3ccccc23)[C@@H](CCCCO)N1 | i | /
COC(=O)N1CCC[C@@]2(CCN(c3ncccn3)C2)C1 | i | /
O=C1CSC(=S)N1Cc1cccnc1 | i | /
CCCCn1c(NC(=O)c2ccccc2)nc2ccccc21 | i | /
O=C(CN1C(=O)CCC1=O)Nc1ccc2c3c(cccc13)CC2 | i | /
CCN(CC)CCCC(C)n1c(-c2ccccc2)nc2c(N3CCOCC3)nc(C)nc21 (configuration not stated) | i | /
Cc1ccc(OC(=O)CCC(=O)Nc2ccc(S(=O)(=O)Nc3cc(C)on3)cc2)cc1 | i | /
COc1cccc(-c2nn(C)c3sc(C(=O)N4CCN(c5ccccn5)CC4)cc23)c1 | i | 7.3*
CCOc1ccc(Nc2nc(Cc3nnc(SCC(=O)NCC4CCCO4)n3C)cs2)cc1 (configuration not stated) | i | >57
c1ccc(-c2nc(-n3ccnc3)nc(-n3ccnc3)n2)cc1 | i | 0.94*
COCCn1c(-c2ccc(Cl)cc2)cnc1SCC(=O)NCc1cccs1 | i | >57
COc1ccc(-c2nc(C#N)c(NCCCN3CCOCC3)o2)cc1 | i | /

# Later entries:
Structure | YjeE inh | PK Bst
CC(C)=C1C2CCC1C(C(=O)NCc1ccccc1)C2C(=O)O (configuration not stated) | i | /
C=CCNC(=O)CCCC(=O)NCC=C | i | >57
COc1cccc(-c2nc(NC3CC3)c3ccccc3n2)c1 | i | /
COc1ccc(OC)c(NC(=O)CNC(=O)Cn2cnc3ccccc3c2=O)c1 | i | >57
CCCC(=O)Nc1nc2ccc3nc(C)sc3c2s1 | i | /
CCOC(=O)c1ccc(NC(=O)CSc2nc3c(c(=O)n2C)SC(C)C3)cc1 (configuration not stated) | i | /
CC(C)NC(=O)c1ccccc1-c1nc(-c2ccccc2Cl)no1 | i | /
Cc1cc(C)c2nc3c(c([C@H](O)[C@@H]4CCCCN4)c2c1)CC/C3=C/c1ccc(Cl)cc1 | i | /
CCOC(=O)N1CCC(NC(=O)C(NC(=O)C2CCCCC2)C(C)C)CC1 (configuration not stated) | i | >57
CCCCc1nc2ccccc2c(NC(=O)CN2CCN(C)CC2)c1CCC | i | >57
O=C(O)c1cscn1 | i | /
CC(=O)N(CN1C(=O)c2ccccc2C1=O)c1ccccc1 | i | >57
FC(F)(F)c1nc2nncn2c2c1CCCCC2 | i | >57
COc1cccc(C2=NOC(C(=O)NC(C)C)C2)c1 (configuration not stated) | i | >57
O=C(CNS(=O)(=O)c1ccc(Br)s1)NCC1COc2ccccc2O1 (configuration not stated) | i | >57
N#CCCn1nc(-c2ccccc2)cc1-n1c(C(F)(F)F)nc2ccccc21 | i | >57
CCC(=O)Nc1nc2ccccc2n1CCN(C)C | / | >26
COc1ccc(OC)c2sc(N3CCCCC3)nc12 | i | ?
COC(=O)NCC(c1cccnc1)N1CCN(c2ccccc2)CC1 (configuration not stated) | i | /
Cc1ccc(NS(=O)(=O)c2cc(C(=O)N3CCOCC3)ccc2C)cc1 | i | >57

# (continued)
Structure | YjeE inh | PK Bst
CC1CCCN(S(=O)(=O)c2ccc3c(c2)CCN3C(=O)C2CCC2)C1 (configuration not stated) | i | >57
CC(=O)C1=C(O)C(=O)N(CCN(C)C)C1c1ccc(Cl)cc1 (configuration not stated) | i | >57
Cc1nc2ccccc2c2oc(C(=O)Nc3ccc4c(c3)OCCO4)cc12 | i | /
COc1cccc2sc(Nc3nc(C)c(C(C)=O)s3)nc12 | i | ?
CC(C)C(=O)N1CCN(C2=NS(=O)(=O)c3ccccc32)CC1 | i | >57
